# 2A firefly: Primary qHTS Assay for Foot and Mouth Disease Virus Antivirals against NCGC Sytravon and CBC Compound Libraries: Firefly Luciferase Signal; HEK cells with a luciferase reporter of 2A StopGo recoding; Potency, µM (doses to about 57.5 µM), for inactives: top-dose signal change, negative = less light; actives 0.23% (n = 120,000); AID 1745856, 2022; active = well fitted falling curve with a large enough effect; inconclusive = small, poorly fitted or top-dose-only effect; inactive = no such curve, though single readings can be large or run the other way; also: nearly all actives have a fitted effect of over 60% in size; overnight with compound
# StopGo RLuc: Primary qHTS Assay for Foot and Mouth Disease Virus Antivirals against NCGC Sytravon and CBC Compound Libraries: Renilla Luciferase Signal; HEK cells with a luciferase reporter of 2A StopGo recoding; Potency, µM (titrated, usually from 57.5 µM), for the others: at the highest dose signal change, negative = less light; actives 0.32% (n = 120,000); AID 1745857, 2022; active means well fitted falling curve with a large enough effect; inconclusive means small, poorly fitted or top-dose-only effect; inactive means no such curve, though single readings can be large or run the other way; also: nearly all actives have a fitted effect of over 55% in size; overnight with compound
# * marks the source's active call; other numbers are inactive results; u = inconclusive; [ ] = dose if it differs, or a comment. % is scaled to controls: 0 for no effect and ±100 for the full control effect; potency is read from the fitted curve at half-maximal effect. An excerpt. The share of hits here may be higher or lower than overall.
SMILES,2A firefly,StopGo RLuc
CN1C(=O)S/C(=C\C(=O)O)C1=O,4%,-11%
Cc1nnc(NC(=O)CCc2ncc(-c3ccccc3)o2)s1,-1%,-9%
CONC(=O)c1cccc(NC(=O)c2cccs2)c1,62%[activator],0%
COc1ccccc1CCNC(=O)Cc1c(C)c2ccc(O)cc2oc1=O,3%,-3%
O=C(Nc1cccc(S(=O)(=O)N2CCCC2)c1)c1cccc2cccnc12,25%,48%[activator]
COc1ccc(C(=O)N2CCCC(C(=O)Nc3ccc(C)cc3)C2)c2ccccc12 (centres undefined),-36%,u
Cc1cccc(Nc2nc(C(=O)N3CCc4ccccc4C3)cs2)c1,u,u
Cn1c(SCC(=O)Nc2ccc(Br)cc2)nnc1-c1ccccc1F,-6%,2%
CCc1ccc(NC(=O)CCn2cnc3ccccc3c2=O)cc1,7%,-9%
Cc1ccc2oc(-c3ccc(Cl)c(NC(=O)c4ccc(-c5ccccc5[N+](=O)[O-])o4)c3)nc2c1,230%[activator],-6%
Cc1cc(N2CCN(c3cccc(C(F)(F)F)c3)CC2)n2nc(-c3ccccc3C)nc2n1,-12%,-9%
Cc1ccc(C)c(S(=O)(=O)N2CCN(C(=O)NC(C)CCc3ccccc3)CC2)c1 (centres undefined),-14%,-5%
O=C(NC1CC1)c1cccc(NC(=O)C2CC3CCC2C3)c1 (centres undefined),0%,10%
COc1cc(OC)c(N(C)C(=O)c2cc3c(=O)oc4ccccc4c3s2)cc1Cl,-14%,-4%
COc1cccc(C2CC(=O)Nc3c2c(=O)nc(SC)n3C)c1OC (centres undefined),-18%,-16%
CCN(CC)C(=O)Oc1ccc2c(=O)c(Oc3ccc(C(=O)OC)cc3)coc2c1,-27%,u
O[C@H](COc1cccc(F)c1)CN1CCC(C(O)(c2ccccc2)c2ccccc2)CC1,-12%,-11%
O=C(COC(=O)c1ccc(S(=O)(=O)NCc2ccco2)cc1)c1ccc(F)cc1,-6%,-4%
CN(Cc1ccccc1)S(=O)(=O)c1cc(Br)cc2c1N(C(=O)C1CC1)CC2,0%,146%[activator]
CC(C)NC(=O)c1ccc(F)cc1,23%,9%
CC(=O)N(CC(=O)N(C)C)c1ccccc1,46%[activator],2%
O=C(c1ccc(CS(=O)(=O)c2c(Cl)cccc2Cl)o1)N1CCN(c2ccccc2)CC1,-6%,20%
Cc1ccc2[nH]c(C(=O)NC(C)c3cccc(F)c3)cc2c1 (centres undefined),-1%,-2%
COc1cccc(C(=O)Nc2ccc3nc4n(c(=O)c3c2)CCCCC4)c1,71%[activator],-11%
O=c1cc2nc(-c3ccccc3)nc(SCCOc3ccc(Cl)cc3)n2[nH]1,-8%,-12%
CCOC(=O)Cn1nc(C)c(NC(=O)COc2ccc(Cl)cc2C)c1C,u,10µM*
CC(=O)Nc1ccc(CNC2CCCC(C)C2C)cc1 (centres undefined),0%,19%
Nc1c(C(=O)Nc2cc(Cl)cc(Cl)c2)sc2nc(-c3ccncc3)ccc12,-2%,-8%
COC(=O)CSc1ncc2c(n1)-c1ccccc1N(Cc1ccccc1C)S2(=O)=O,-1%,-2%
CC(=O)c1c(C)[nH]c(C(=O)OCC(=O)Nc2ccc(Br)c(C)c2)c1C,u,u
CC(=O)Nc1ccc(C(=O)COc2ncnc3sccc23)cc1,19%,-10%
Cc1ccc(CNC(=O)c2ccc(-c3nc(CN4CCc5ccccc54)c(C)o3)cc2)cc1,32%[activator],29%
Cc1ccc(NC(=O)Cn2cc(C(=O)c3ccco3)c3ccccc32)c(C)c1,-5%,3%
COc1cc(CN(C)C(=O)c2cc3ccccc3oc2=O)ccc1OC(F)F,6%,130%[activator]
CCCCN(C)CCNC(=O)c1c2c(nc3ccccc13)C(=O)N(C1CCCCC1)C2,u,-18%
OC(c1ncc(-c2ccccc2)o1)C(F)(F)F (centres undefined),64%[activator],8%
CCc1ccccc1Nc1nc(N)c(C(=O)c2ccc(C)cc2)s1,2%,-18%
CC(CNC(=O)c1ccc(CSc2nc3ccncc3n2Cc2cccc(F)c2)cc1)c1ccccc1 (centres undefined),-22%,-24%
CCCCOC(=O)CSc1ncnc2sc3c(c12)CCC(C)C3 (centres undefined),30%[activator],-2%
CCCOc1cccc(C(=O)Nc2cc(C(C)(C)C)on2)c1,0%,18%
CCCn1nc(C(=O)N(CC)C2CCS(=O)(=O)C2)c2ccccc2c1=O (centres undefined),23%,12%
Cc1ccc(S(=O)(=O)Nc2cc3c(cc2NCc2ccccc2)n(C)c(=O)n3C)c(C)c1,218%[activator],147%[activator]
CCCCCOC(=O)c1c(C)oc2c1cc(NS(=O)(=O)c1cccs1)c1ccccc12,8%,16%
Cc1cccc(Cn2c(NCCc3ccccc3)nc3c2c(=O)[nH]c(=O)n3C)c1,-4%,1%
CCNc1c(NC(=O)COc2ccc(Cl)cc2)c(=O)oc2ccccc12,-9%,6%
Cc1ccc(OCC(=O)Nc2ccccc2C(=O)OCc2cc(=O)n3ccsc3n2)cc1C,-12%,-9%
CCN(Cc1cccc(F)c1)C(=O)Nc1ccc(N2CCN(C)CC2)cc1,12%,-2%
CCc1ccccc1NC(=O)Cn1c(=O)n(C(C)C)c(=O)c2oc3ccccc3c21,-12%,-15%
CC(Cc1ccccc1)NC(=O)C1(c2ccccc2)CCCC1 (centres undefined),5%,20%
CSc1nc(Nc2ccccc2)c(C#N)c(-c2ccccc2)n1,-6%,-16%
Cc1ccc2oc(-c3cc(NC(=O)c4cccc(Cl)c4)ccc3O)nc2c1,12%,0%
CCCCCCOc1ccc(C2C(=O)N(C3CCCCC3)CC(=O)N2CCC)cc1 (centres undefined),17%,9%
COc1ccc(C)cc1NC(=O)Cc1nc(-c2cccs2)oc1C,-8%,8%
CC(C)CCN(C(=O)Nc1ccccc1)C(C)c1cccs1 (centres undefined),4%,2%
Cc1cc(C)cc(-n2ccnc2SCC(=O)Nc2ccc3c(c2)OCO3)c1,16%,31%[activator]
Cc1ccccc1S(=O)(=O)Cc1ccc(C(=O)NCCN(C)C)o1,-2%,-7%
COc1ccc(N2CCN(Cc3nnc(-c4cccc(Br)c4)o3)CC2)cc1,-7%,-9%
CCOC(=O)N1CCN(C(C(=O)O)c2c[nH]c3ccccc23)CC1 (centres undefined),-12%,-8%
O=C(Cc1ccc(N2CCCC2=O)cc1)N1CCC(C(=O)N2CCCCCC2)CC1,10%,8%
COc1ccccc1C(=O)Nc1cccc(C(=O)OCc2cc(=O)n3nc(C)sc3n2)c1,-7%,-9%

# The listing continues.
SMILES,2A firefly,StopGo RLuc
O=C(CCN1C(=O)c2ccccc2S1(=O)=O)Nc1ccccc1C(=O)O,57%[activator],36%
Cc1cc(C)c2oc(C(=O)Nc3nnc(SCc4ccccc4F)s3)cc(=O)c2c1,1%,14%
O=c1c2sc3ccccc3c2n(Cc2cccc(Cl)c2)c(=O)n1Cc1ccc(F)cc1,-10%,-3%
CC1CC(C)CN(C(=O)c2ccc3c(c2)N(Cc2ccccc2)C(=O)CS3=O)C1 (centres undefined),-12%,51%[activator]
Cc1ccc(C)c(-n2nnnc2SCC(=O)c2ccc(Cl)s2)c1,1%,100%[activator]
CCOC(=O)c1[nH]c(C)c(CCC(=O)NCc2ccc(OC)cc2)c1C,-4%,-6%
Cc1cc(=O)c2cc(C(=O)Nc3ccc(F)cc3)ccc2[nH]1,14%,5%
O=C(Nc1ccccc1C(F)(F)F)c1ccc(Cl)c(Cl)c1,119%[activator],25%
COC(=O)CNC(=O)c1cc(-c2ccccc2)nc2ccccc12,10%,-1%
Cc1ccc(C(CC(=O)O)NC(=O)c2ccccc2C(F)(F)F)cc1 (centres undefined),4%,1%
CN1N=C(C(N)=O)CCC1=O,-11%[11.5 µM],-6%
COc1ccc(NC(=O)CSc2nnc(COc3ccc(C)cc3)n2Cc2ccco2)c(OC)c1,-1%,38%[activator]
CCn1nc(C(=O)Nc2ccc(Cl)cc2C)c2ccccc2c1=O,2%,-4%
O=C(CCc1cc(Cl)no1)Nc1ccc2oc(-c3ccc(Cl)cc3)cc(=O)c2c1,0%,4%
CC(C)NC(=O)CCNC(=O)N1CCN(C(=O)c2cc3ccccc3[nH]2)CC1,-3%,-7%
COc1ccc(-n2c(=O)c3c(c4cc(OC)ccc4n3C)n(Cc3cccc(OC)c3)c2=O)cc1,-10%,-7%
COc1ccc(NC(=O)C23CCC(=O)N2c2ccccc2C(=O)N3)cc1Cl (centres undefined),16%,36%
N#Cc1ccc(/C=C/c2nc3c(ccc4ccccc43)s2)cc1,75%[activator],17%
COc1ccc(CCNCc2cccc(Br)c2)cc1,0%,-8%
COc1ccc(CNC(=O)Nc2ccc(Br)c(C)c2)cn1,0%,15%
N#CC1(NC(=O)CNc2cc(F)cc(F)c2)CCCC1,10%,12%
Cc1ccc(C)c(N2CCN(C(=O)c3cc4c(=O)oc5ccccc5c4s3)CC2)c1,-18%,-8%
O=C(NN=C1CCCCC1)c1nc(-c2ccccc2)n(-c2ccccc2)n1,20%,17%
Cc1cccc(N2CCN(Cc3nnc(-c4cccc(Br)c4)o3)CC2)c1C,-23%,-9%
Cc1ccc2c(Cl)cc(Cl)c(OCC(=O)NC(=O)NC3CCCC3)c2n1,-9%,-12%
O=C(NC1CCCc2ccccc21)c1csc2ccccc12 (centres undefined),0%,211%[activator]
CCCCn1c(=O)c2oc3ccccc3c2n(Cc2ccccc2C)c1=O,-12%,-13%
CCCCNC(=O)c1ccc(NC(=O)CCc2ccccc2)cc1,-1%,-2%
Cc1ccc(NC(=O)c2ccc3c(c2)NC(=O)c2ccccc2S3)c(Cl)c1,u,-11%
O=C(c1ccc2c(c1)CCCC2)N1CCN(c2nc3ccc(F)cc3s2)CC1,0%,5%
Cc1ccc(NC(=O)c2cc(-c3ccncc3)nc3ccccc23)cc1,4%,-1%
CN(C)C(=O)c1cc(Br)ccc1Cl,4%,-3%
O=C(Nc1ccc(Br)cc1)c1ccc(Cl)c(S(=O)(=O)N2CCCCCC2)c1,-11%,-9%
COc1ccc(NC(=O)CN2C(=O)c3ccccc3Sc3ccc(C(=O)N4CCOCC4)cc32)c(OC)c1,-25%,-1%
Cc1nc(-c2ccc(S(=O)(=O)NCc3ccc(N(C)C)cc3)cc2)co1,15%,0%
Cc1ccc2nc(CSc3ccc4ccccc4n3)cc(=O)n2c1,186%[activator],0%
COc1ccc(Cn2ccnc2SCC(=O)Nc2nc3ccccc3s2)cc1,26%,-12%
Cn1c2ccncc2c2cc([N+](=O)[O-])ccc21,u,u
CCOC(=O)COc1cc(O)c2c(=O)cc(-c3ccccc3)oc2c1,1%,-8%
CC(C)c1nnc(NC(=O)c2ccc3ccccc3n2)s1,115%[activator],-6%
CCn1c(=O)c(-c2noc(C(=O)N3CCC(c4ccccc4)C3)n2)nn(-c2ccccc2)c1=O (centres undefined),-11%,-6%
COc1ccc(NC(=O)Cn2c(=O)n(CC3CCCO3)c(=O)c3ccccc32)cc1 (centres undefined),-7%,8%
COc1ccc(CCNc2nc(SCc3ccc(F)cc3)nc3ccccc23)cc1OC,-24%,16%
COc1ccc2nc3oc(C(=O)N(C)c4ccc(Cl)cc4)cc3cc2c1,32%[activator],-8%
Cc1[nH]c2ccccc2c1/C=C(/C#N)C(=O)NC1CC1,191%[activator],9%
C=CCNC(=S)Nc1ccc(Cl)cc1Cl,43%[activator],1%
COc1ccc(NC(=O)C2CCC2)c2cccnc12,1%,-8%
Cc1ccc(CN(C)C(=O)c2cc3cc(F)ccc3[nH]2)c(C)c1,19%,-1%
Cc1cccc(NC(=O)c2c(C)cc(C)nc2SCC(=O)Nc2c(C)cc(C)cc2C)c1,-19%,-11%
O=C(CSc1nc2cc(C(=O)NC3CCCC3)ccc2c(=O)n1CC1CCCO1)c1ccc(F)cc1 (centres undefined),-16%,-5%
CCCc1ccc(C(=O)N(CC#N)C2CC2)cc1,23%,34%[activator]
CCCOc1ccc(C2CC(=O)Nc3c2c(=O)nc(SCc2ccc(F)cc2)n3C)cc1 (centres undefined),2%,0%
